PINK1 modulator – changes PINK1 expression. PINK1 immunofluorescence, high-content cytometry, 24 h. 410,000 compounds, 0.2% hits. AID 624263. Potency, µM (highest dose often 76.6 µM), without a hit: top-dose activation (PINK1 increase), hits mostly activators; active = well fitted activation curve with a large enough effect; inconclusive = small, poorly fitted or top-dose-only effect; inactive = flat fitted curve, though single readings scatter; cell line not stated here;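 note: potency is the fitted concentration of half-maximal effect; % of control where 0% means no effect; nearly all actives have a fitted effect of over 65% in size; a mitochondrial uncoupler was the plate control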
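Fluorescence from anti-PINK1 antibody, together with nuclear and cell stains, was scanned on a laser-scanning cytometer. Before staining, stable-line cells were incubated 24 hours with compounds at 5 concentrations; primary antibody 12 h at 10 degrees C.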
TRPV1 PAM – potentiators of human vanilloid receptor 1 (TRPV1) | 320,000 compounds, 0.02% hits | AID 540277 | Q8NER1 | TRPV1-expressing cells, Fluo-8 calcium influx, capsaicin EC20 potentiation; host cell line not named in the record; control for the full effect not named in the record | potentiation, % at 8.33 µM; active means potentiation above 80%; inconclusive means 30% to 80%; inactive means below 30%; note: 0% is about no effect
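Cells expressing TRPV1 were dye-loaded with Fluo-8 and read kinetically: 10 s baseline, 3 min after compound (agonist portion), then 2 min after EC20 capsaicin (allosteric enhancer portion). Calcium-bound dye fluorescence at 480/520 nm.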
TRPML1 agonist – activates the human TRPML1 channel. Q9GZU1. activation, % (concentration not given with the values). AID 624414. TRPML1-expressing cells, Ca2+ dye fluorescence, FDSS; host cell line not named in the record; reference of the full effect not given here. 410,000 compounds, 0.12% hits; in the data active = activation above about 50%; inconclusive = about 30% to 50%; inactive = below about 30%; note: 0% is about no effect; the text of the record puts the active cut at 80%
Target sequence (Q9GZU1 whole entry, looked up): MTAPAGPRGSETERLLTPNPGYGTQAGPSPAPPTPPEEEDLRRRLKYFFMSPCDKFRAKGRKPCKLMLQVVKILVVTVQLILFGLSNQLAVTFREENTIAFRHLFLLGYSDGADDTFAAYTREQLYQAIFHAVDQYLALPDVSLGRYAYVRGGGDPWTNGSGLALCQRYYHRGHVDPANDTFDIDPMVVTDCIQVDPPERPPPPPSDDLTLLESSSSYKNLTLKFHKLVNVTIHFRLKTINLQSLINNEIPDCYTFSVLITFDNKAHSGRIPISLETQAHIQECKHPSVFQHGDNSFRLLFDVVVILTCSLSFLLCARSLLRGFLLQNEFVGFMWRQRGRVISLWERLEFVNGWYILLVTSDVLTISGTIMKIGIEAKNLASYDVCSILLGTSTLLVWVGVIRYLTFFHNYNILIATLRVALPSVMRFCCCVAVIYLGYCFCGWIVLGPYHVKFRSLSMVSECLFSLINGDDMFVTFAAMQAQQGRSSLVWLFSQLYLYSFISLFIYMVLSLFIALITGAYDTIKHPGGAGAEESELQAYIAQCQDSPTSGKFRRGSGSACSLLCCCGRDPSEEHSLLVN
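Tet-induced TRPML1-DL cells, 1,500 per well, cultured overnight, were loaded with a no-wash Ca2+ dye for 45–90 min. Calcium fluorescence was recorded on the FDSS for 110 s after compound addition, before the EC80 agonist (4 uM 54-4) was added.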
TRPML1 blocker – human mucolipin-1 channel inhibition. Q9GZU1. activity change, negative = inhibition, % (concentration not given with the values). TRPML1-inducible cells, Ca2+ dye fluorescence, FDSS; hits give low values; inhibition of EC80 agonist-evoked calcium signal. AID 624415. 390,000 compounds, 0.02% hits; in the data active means activity change below about -50%; inconclusive means about -30% to -50%; inactive means above about -30%;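 note: stimulus is agonist 54-4 at its EC80 concentration; % is set by controls: 0 for no effect and ±100 for the full control effect; the text of the record puts the active cut at -80%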
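Tet-induced TRPML1-DL cells loaded with Ca8 no-wash calcium dye were read kinetically on FDSS. Compound addition was followed by EC80 agonist 54-4 (4 uM final); inhibition was read over 110 s.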
ClpP mod – qHTS Assay for Activators of ClpP; Potency, µM (top dose mostly 57.5 µM), without a hit: at the top dose activity change, negative = active; ATP-dependent Clp protease proteolytic subunit (Bacillus subtilis (strain 168)), P80244; purified B. subtilis ClpP, FRET peptide cleavage, 20 min; 340,000 compounds, 1.9% hits; active = well fitted falling curve with a large enough effect; inconclusive = small, poorly fitted or top-dose-only effect; inactive = no such curve, though single readings can be large or run the other way; note: potency is the fitted concentration of half-maximal effect; the source files actives as falling curves though it sought activators and does not explain the sign; nearly all actives have a fitted effect of over 65% in size; many hits overshoot -100%
Target sequence (P80244 whole entry, looked up): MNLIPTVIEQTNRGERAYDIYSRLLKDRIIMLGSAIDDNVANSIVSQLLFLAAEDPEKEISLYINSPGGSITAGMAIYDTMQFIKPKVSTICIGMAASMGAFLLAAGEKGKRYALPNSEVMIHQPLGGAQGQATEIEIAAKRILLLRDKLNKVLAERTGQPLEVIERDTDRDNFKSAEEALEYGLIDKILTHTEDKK
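ClpP 10 microg/mL final, pH 8 Tris/KCl buffer with BSA, glycerol, Tween-20; compound pinned in; FRET-FV substrate; RT 20 min; Ex320/Em430; ΔFRET vs ADEP 5.8 microM, DMSO, no enzyme.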
Menin MLL FP FL – menin-MLL binding inhibition, fluorescein peptide; Fluorescence polarization, fluorescein-MLL peptide displacement from menin; FP activity change, % at 61.4 µM; 290,000 tested, under 10 active; inconclusive = falling polarisation curve, or a change in total fluorescence; inactive = total fluorescence flat and polarisation flat or rising; no compound was filed as active; the % refers to the polarisation; negative = inhibition;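 note: % of control where 0% means no effect; inhibitors lower the polarisation; unlabelled MLL peptide was the positive control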
Sfp PPTase inh – blocks B. subtilis Sfp PPTase activity; 310,000 compounds, 3.5% hits; AID 1490; Q9F4F7; Potency, µM, for inactives: max response, negative = inhibition, hits mostly inhibitors; Biochemical Sfp PPTase activity, qHTS; active = well fitted inhibition curve with a large enough effect; inconclusive = small, poorly fitted or top-dose-only effect, or another doubt; inactive = no such curve, though single readings can be large or run the other way;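 note: the enzyme is Sfp with the accession as filed and its product quenches rhodamine fluorescence; potency is the fitted concentration of half-maximal effect; 0% = enzyme reaction without inhibitor and -100% = no enzyme wells; top concentration of the series not given in the record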
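With Hepes-Na pH 7.6 buffer containing 10 mM MgCl2, Sfp (15 nM) modified BHQ-2-YbbR (12.5 uM) using rhodamine-CoA (5 uM). Two reads 30 minutes apart at 525/598 nm yielded each well's rate.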
* marks the source's active call; other numbers are inactive results; ? = inconclusive; . = not tested or not shown; [ ] = another dose, or the depositor's remark. Hits appear at their usual frequency. About 4.4% of those tested had a hit in this group.

SMILES	PINK1 modulator	TRPV1 PAM	TRPML1 agonist	TRPML1 blocker	ClpP mod	Menin MLL FP FL	Sfp PPTase inh
CCCOc1c(Br)cc(C(=O)OCC(=O)NC(=O)c2cccn2C)cc1OC	16.5%	4.1	0.0	-6.3	0.9%	.	.
COc1nc(C#N)nc(N2CCCCC2)n1	0.2%	.	-0.4	.	-1.4%	.	.
CCOc1ccc(-c2nnn(CCC#N)n2)cc1OC	-0.8%	1.6	-0.7	9.0	.	9.7	11.9%
COCCN1CCN(C(=O)c2cc(COc3cc(C)ccc3C)on2)CC1	-0.2%	-18.6	3.9	2.0	-2.9%	0.3	9.5%
O=C(CCc1c[nH]c2ccccc12)NCC1COc2ccccc2O1 (configuration not stated)	0.5%	-8.0	-1.3	0.8	-0.4%	-1.0	11.5%
O=C(Nc1ccc(Cl)cn1)c1ccc2c(Cl)c3c(nc2c1)CCC3	7.3%	-11.8	1.2	-13.8	-2.9%	-0.9	-3.7%
CCc1nc2nc(C)cc(Nc3cc(Cl)ccc3C)n2n1	-0.6%	.	0.1	9.7	0.3%	.	.
CCOCCn1ccc2c(OCC(=O)NCCc3ccc(OC)c(OC)c3)cccc2c1=O	0.9%	3.9	0.4	15.8	-16.3%	.	.
COc1ccc(C(C(=O)NC2CCCCC2)N(CC2CCCO2)C(=O)CCCC(=O)Nc2ccccn2)cc1 (configuration not stated)	-0.5%	9.0	-0.1	-2.6	.	-3.0	8.8%
O=C(Nc1cccnc1)Nc1ccc(Cl)cc1Cl	0.1%	-8.4	0.2	25.4	0.8%	-2.9	-11.0%
CSc1ccccc1C(=O)C1CCCN(C(=O)c2cc(C(C)C)no2)C1 (configuration not stated)	0.3%	2.0	2.4	10.3	.	-2.4	-10.2%
CN(Cc1ccccc1)C(=O)COC(=O)Cn1cnc2ccccc21	-0.3%	21.5	-1.0	-12.5	-13.6%	2.0	-0.9%
COc1ccc(OCC(=O)Nc2c3c(nn2C(C)(C)C)CS(=O)(=O)C3)cc1	-0.8%	0.0	0.7	4.3	-21.1%	.	-1.7%
Cc1c(Nc2nc(-c3ccc(Cl)cc3)cs2)c(=O)n(-c2ccccc2)n1C	-2.4%	16.8	0.1	-15.9	-1.6%	0.1	-4.6%
CCOC(=O)c1sc(S(C)=O)c2c1CCc1conc1-2 (configuration not stated)	1.0%	13.4	2.7	-11.9	-13.2%	?	39.8µM*
O=C(CCn1cnnn1)Nc1ccc(Cl)cc1Cl	-1.2%	-7.4	2.9	-20.4	0.9%	-1.1	14.1%
Cc1cccc(CNc2cc(-c3ccccc3CN(C)C)ncn2)c1	-0.1%	.	.	.	.	-0.4	15.3%
CCOC(=O)n1c(O)c(N=NC(N)=S)c2cc(C)ccc21	-0.5%	4.8	0.0	2.6	-1.3%	3.5	3.5%
CCN(CC)CCCNC(=O)CCn1nc(-c2ccc(Cl)cc2)ccc1=O	-0.7%	-6.4	-0.5	-4.2	-0.8%	-5.6	13.6%
O=C(NCc1ccccc1)C1Cc2ccccc2CN1C(=O)c1ccco1 (configuration not stated)	-0.6%	11.2	-0.2	-5.2	-4.3%	2.1	8.6%
O=C(CN(C(=O)CCC(=O)Nc1ccccn1)c1cccc(F)c1)NCc1ccco1	-3.1%	-19.0	1.4	-12.0	.	-19.7	6.1%
CC(=O)OCON[N+]([O-])=NC1CCCCC1	.	.	1.0	14.6	.	-0.1	6.9%
COc1ccc(S(=O)(=O)NC(C)C(=O)Nc2ccccc2)cc1Cl (configuration not stated)	2.3%	3.8	0.4	-9.7	-20.6%	-1.1	9.9%
CCOc1ccc2oc(=O)cc(CN3CCN(C(=O)c4ccc(F)cc4)CC3)c2c1	0.8%	.	0.7	10.0	-25.1%	.	.
O=C(c1ccccc1)N1CCN(C(=S)NCc2ccco2)CC1	-1.2%	6.3	0.4	-0.7	.	2.5	35.5µM*

Next part:
SMILES	PINK1 modulator	TRPV1 PAM	TRPML1 agonist	TRPML1 blocker	ClpP mod	Menin MLL FP FL	Sfp PPTase inh
C=C1c2cc3c(cc2NC(=S)N1Cc1ccccc1)OCO3	5.6%	19.1	0.8	67.9	.	6.1	-13.2%
CCc1ccc(NC(=O)[C@H](C)NC(=O)C2CCN(C(=O)[C@@H](N)C(C)C)CC2)cc1	-0.8%	5.1	0.3	-6.6	-0.7%	0.8	13.5%
COc1ccc(CN2CCNC(=O)C2CC(=O)N2CCCCO2)c(OC)c1 (configuration not stated)	1.9%	-0.2	-0.1	-13.7	.	-5.7	11.4%
CCc1ccccc1NC(=O)Cn1cc(C(=O)c2ccc(Cl)cc2)c(=O)c2ccc(C)nc21	1.2%	.	0.0	7.0	-1.8%	.	.
COCC(=O)Nc1nc2ccc(S(C)(=O)=O)cc2s1	0.8%	0.4	-0.1	-4.3	-2.8%	3.3	-6.2%
CCOc1cc(/C=N/NC(=O)Cc2ccc(C(F)(F)F)cc2[N+](=O)[O-])ccc1O	2.6%	?	2.4	-5.1	1.4%	8.3	20.0%
CC(C)(C)OC(=O)N1CCC(c2c(C(=O)NCc3cccs3)cnn2-c2cccc(F)c2)CC1	1.5%	.	1.0	-22.5	3.0%	.	.
CCN=C(NCC)SC1CC(=O)N(c2ccccc2)C1=O (configuration not stated)	-2.9%	19.5	0.1	3.3	-2.6%	-4.4	6.5%
COc1ccc(CCC(=O)NC2CC(=O)N(c3ccccc3)C2)cc1 (configuration not stated)	-0.3%	.	1.6	-14.4	2.3%	.	.
Cc1nnsc1C(=O)N/N=C/c1ccccc1	2.7%	21.0	-0.5	-3.6	.	2.3	-21.2%
O=C(N/N=C/c1ccc(O)cc1)/C(=C/c1ccccc1)CCO	-1.5%	17.0	-0.2	6.0	-7.2%	0.1	7.8%
CCOc1ccc(NC(=O)CN(C)C2=NS(=O)(=O)c3ccccc32)cc1	-0.2%	.	0.2	-7.9	-0.5%	.	.
Cc1[nH]n(-c2ccccc2)c(=O)c1N=Nc1cccc([N+](=O)[O-])c1	3.6%	-6.5	-0.6	-10.3	.	-4.2	11.3%
C=CCOn1c(=O)c(-c2ccc(OCC)cc2)[n+]([O-])c2ccccc21	4.4%	6.9	-1.7	-22.1	0.9%	-1.7	15.1%
Cc1cccc(C(C)C)c1NC(=O)C(C)OC(=O)Cc1n[nH]c(=O)c2ccccc12 (configuration not stated)	0.8%	10.7	-0.9	6.4	1.3%	.	.
CCc1ccc(NC(=O)c2sc3nc(C)nc(N4CCN(c5ccccn5)CC4)c3c2C)cc1	0.5%	2.2	0.5	8.1	.	-0.8	11.7%
COC(=O)c1ccsc1NC(=O)c1ccco1	-0.6%	-4.4	0.3	5.7	-23.7%	1.1	5.8%
COC(=O)c1c(NC(=O)CN2C(=O)c3ccccc3C2=O)sc(Cc2ccc3c(c2)OCO3)c1C	-0.2%	3.4	-0.3	6.0	0.6%	1.7	5.9%
COc1ccc(Cc2n[nH]c(=S)n2-c2cc(C)ccc2C)cc1OC	0.4%	.	-0.5	.	-2.1%	.	.
Oc1ccccc1-c1cc(C(F)(F)C(F)F)[nH]n1	4.4%[38.3 µM]	7.0	1.0	3.2	-1.6%	1.2	-0.2%
COc1ccc(N2C(=NC(C)=O)SC3CS(=O)(=O)CC32)cc1OC (configuration not stated)	-0.3%	-4.8	0.8	9.4	72.4%	-1.5	17.3%
Cc1cccc(-n2cc(CN(C)Cc3nccn3C)c(-c3cccc(F)c3)n2)c1	1.0%	-12.7	1.2	8.4	-1.3%	-0.2	1.5%
Fc1ccccc1CSc1nncn1NC/C=C/c1ccccc1	-1.5%	.	1.3	1.2	-1.8%	6.2	-22.6%
OCCN1CN=C(Nc2nc3ccccc3o2)NC1	-1.6%	-4.3	1.5	3.9	0.8%	5.3	2.3%
CCC[n+]1cn(/C(C(=S)Nc2cccc(Cl)c2C)=C(/[O-])c2ccc(OC)c(OC)c2)c2ccccc21	-0.8%	-1.4	-0.6	1.1	-1.8%	1.6	2.8%

Additional entries
SMILES	PINK1 modulator	TRPV1 PAM	TRPML1 agonist	TRPML1 blocker	ClpP mod	Menin MLL FP FL	Sfp PPTase inh
CCc1ccc(CN(C)Cc2nc(Cc3ccccc3)no2)nc1	0.4%	-14.4	-0.2	-26.8	-3.6%	-2.5	21.6%
Cc1cc(C)cc(N2CCN(C(=O)N3CCOCC3)CC2)c1	-1.0%	-11.7	-1.0	0.6	0.3%	-1.5	1.2%
Cn1c(=O)c2c(nc(SCC(=O)N3CCOCC3)n2C)n(C)c1=O	0.0%	16.3	-0.5	4.0	.	0.3	8.1%
Cc1cn2c(=O)cc(COC(=O)c3ccc(NC(=O)COc4ccccc4F)cc3)nc2s1	1.5%	.	1.9	-7.6	0.7%	.	.
CC1CCCN(S(=O)(=O)c2ccc(NC(=O)c3cccc(-n4cnnn4)c3)cc2)C1 (configuration not stated)	-3.8%	-16.3	-0.9	-3.6	-1.8%	5.1	1.7%
Cc1ccc(C2c3[nH]c4ccccc4c3CCN2C(=O)c2ccc(N(C)C)cc2)cc1 (configuration not stated)	2.5%	.	0.0	-8.0	-18.6%	.	.
CCOC(=O)N1CCN(C(=O)C2CC(c3ccccc3OC)=NO2)CC1 (configuration not stated)	7.6%[38.3 µM]	19.8	-0.3	-0.8	-15.4%	1.8	-5.5%
CCOc1ccc(NC(=O)CN2C(=O)NC(C)(c3ccc4c(c3)OCCCO4)C2=O)cc1OCC (configuration not stated)	0.9%	.	1.8	-23.1	-0.6%	.	.
CCC(=O)Nc1ccc2c(c1)nc1n2CCN(C2CCCCC2)C1	1.9%	-3.4	-0.2	14.8	.	-7.6	-10.7%
CCc1ccc(C(=O)NNC(=O)CC2OC(=O)c3ccccc32)cc1 (configuration not stated)	0.0%	10.3	0.3	1.4	-1.5%	.	.
O=[N+]([O-])c1ccc(Cl)c(S(=O)(=O)NC2=NCCC2)c1	-0.2%	19.1	0.2	6.9	.	.	.
O=C(OCc1cc(=O)n2cc(Br)ccc2n1)c1ccc(Cl)c(S(=O)(=O)NCc2ccccc2)c1	-0.3%	2.9	0.2	11.9	-10.0%	7.6	-0.2%
CCCCc1ccc(-n2nnnc2SCC(=O)Nc2cc(OC)c([N+](=O)[O-])cc2C)cc1	7.6%	-1.4	2.1	-13.1	1.0%	7.5	-10.3%
CCOC(=O)CCCN1C(=O)CCn2nc(-c3cn(C)c4ccccc34)cc21	-0.7%	.	-0.2	-1.2	-7.0%	.	.
CN(C(=O)c1cn2ccccc2n1)c1c(N)n(Cc2ccccc2)c(=O)[nH]c1=O	3.3%	-1.4	0.5	-5.4	-2.8%	.	.

Bioassay records: PubChem, National Center for Advancing Translational Sciences (NCATS)
